# Screening data as filed in PubChem BioAssay.
# Six1-Eya2 inh: qHTS Assay for Inhibitors of the Six1/Eya2 Interaction | Homeobox protein SIX1 (Homo sapiens) + Protein phosphatase EYA2 (Homo sapiens), … | activity change, % (concentration not given with the values) | actives 0.56% (n = 360,000) | AlphaScreen GST-Six1/His-Eya2 binding, biochemical; hits give low values; control for the full effect not named in the record; in the data active = activity change below about -65%; inconclusive = about -30% to -65%; inactive = above about -30%; also: % is scaled to controls: 0 for no effect and ±100 for the full control effect
#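 AlphaScreen with GST-Six1 and His-Eya2 (5X mix: 250 nM and 500 nM), glutathione donor and nickel acceptor beads; buffer 50 mM Tris pH 8.0, 300 mM NaCl, 1 mM TCEP; 1 h at 37 C in the dark.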
# TRPML1 blocker: qHTS for Inhibitors of the Human Mucolipin Transient Receptor Potential 1 (TRPML1); TRPML1-inducible cells, Ca2+ dye fluorescence, FDSS; hits give low values; inhibition of EC80 agonist-evoked calcium signal; activity change, negative = inhibition, % (no concentration beside the values); actives 0.02% (n = 390,000); in the data active means activity change below about -50%; inconclusive means about -30% to -50%; inactive means above about -30%;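 also: stimulus is agonist 54-4 at its EC80 concentration; % is scaled to controls: 0 for no effect and ±100 for the full control effect; compound concentration not given in the record; the text of the record puts the active cut at -80%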
# Target sequence (Q9GZU1 whole entry, looked up): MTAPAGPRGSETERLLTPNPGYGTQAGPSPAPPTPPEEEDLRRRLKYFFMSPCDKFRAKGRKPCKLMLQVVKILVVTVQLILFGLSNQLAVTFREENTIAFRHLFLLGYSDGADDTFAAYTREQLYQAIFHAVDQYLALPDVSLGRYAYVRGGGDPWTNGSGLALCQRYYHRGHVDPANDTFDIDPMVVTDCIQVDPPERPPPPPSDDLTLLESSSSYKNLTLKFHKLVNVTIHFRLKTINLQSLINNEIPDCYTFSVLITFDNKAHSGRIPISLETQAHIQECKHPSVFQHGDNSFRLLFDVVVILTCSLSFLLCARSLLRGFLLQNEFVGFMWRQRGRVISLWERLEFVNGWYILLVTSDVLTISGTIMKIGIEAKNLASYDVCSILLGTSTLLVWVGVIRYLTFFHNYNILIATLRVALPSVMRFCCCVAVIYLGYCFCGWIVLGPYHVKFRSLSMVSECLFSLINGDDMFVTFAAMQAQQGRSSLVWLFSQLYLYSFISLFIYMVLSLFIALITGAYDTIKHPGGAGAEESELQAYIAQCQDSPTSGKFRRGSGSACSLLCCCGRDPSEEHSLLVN
#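 TRPML1-DL cells, Tet-induced overnight (~16 h, 37 °C) at 1,500 cells/well, were loaded with Ca8 no-wash dye plus quencher for 45-90 min at room temperature. Compounds were pinned during FDSS kinetic reading; agonist 54-4 at EC80 (4 uM final) then added.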
# PINK1 modulator: A Quantitative High throughput Screen to Identify Chemical Modulators of PINK1 Expression; PINK1 immunofluorescence, high-content cytometry, 24 h; Potency, µM (top dose mostly 76.6 µM), without a hit: top-dose activation (PINK1 increase), usual class: activators; actives 0.2% (n = 410,000); AID 624263, 2012; active = well fitted activation curve with a large enough effect; inconclusive = small, poorly fitted or top-dose-only effect; inactive = flat fitted curve, though single readings scatter; cell line not stated here;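 also: potency is read from the fitted curve at half-maximal effect; % of control where 0% means no effect; nearly all actives have a fitted effect of over 65% in size; a mitochondrial uncoupler was the plate control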
#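 PINK1 protein level read as immunofluorescence by microplate cytometer in a fixed, stained stable cell line after 24 h exposure to five compound concentrations, with CCCP as control.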
# D2 potentiator: Beta-Arrestin HTS for Positive Allosteric Modulators of the Human D2 Dopamine Receptor: Potentiators; D(2) dopamine receptor (Homo sapiens), P14416; DiscoveRx D2 beta-arrestin cells, luminescence, 90 min; 100% = 57 uM dopamine signal; potentiation, % (no concentration beside the values); actives 0.23% (n = 360,000); AID 624464, 2012; active = potentiation of 50% or more; inconclusive = 30% to 50%; inactive = 30% or less;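 also: compound concentration not given in the record; tested on top of an EC20 dose of dopamine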
# Target sequence (P14416 whole entry, looked up): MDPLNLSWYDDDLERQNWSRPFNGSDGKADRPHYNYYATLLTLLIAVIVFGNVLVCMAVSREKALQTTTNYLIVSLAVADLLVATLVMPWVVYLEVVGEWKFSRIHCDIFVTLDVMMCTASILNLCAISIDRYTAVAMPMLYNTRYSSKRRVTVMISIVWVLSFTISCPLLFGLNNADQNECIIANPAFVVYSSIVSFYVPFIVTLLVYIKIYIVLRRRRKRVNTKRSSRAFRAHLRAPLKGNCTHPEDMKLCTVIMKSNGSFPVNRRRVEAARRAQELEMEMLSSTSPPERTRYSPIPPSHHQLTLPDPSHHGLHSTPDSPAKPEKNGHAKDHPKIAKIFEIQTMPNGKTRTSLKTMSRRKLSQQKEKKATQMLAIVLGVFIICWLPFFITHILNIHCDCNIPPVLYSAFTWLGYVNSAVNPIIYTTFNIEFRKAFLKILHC
#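 PathHunter beta-arrestin assay in DiscoveRx D2 cells. Compounds were added with an EC20 of dopamine (50 nM final) for 90 min at 37 deg C. Luminescence was read 1 h after detection reagent, with 57 uM dopamine as the EC100 control.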
# TRPML1 agonist: qHTS for Agonists of the Human Mucolipin Transient Receptor Potential 1 (TRPML1). TRPML1-expressing cells, Ca2+ dye fluorescence, FDSS; host cell line not named in the record; reference of the full effect not given here. activation, % (test concentration not listed). actives 0.12% (n = 410,000). AID 624414, 2012; in the data active = activation above about 50%; inconclusive = about 30% to 50%; inactive = below about 30%; also: 0% is about no effect; the text of the record puts the active cut at 80%
#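 TRPML1-DL cells, Tet-induced overnight (~16 h, 37 degrees C), loaded 45-90 min at room temperature with Ca8 no-wash calcium dye plus quencher. FDSS fluorescence: 10 s baseline, compound pin-transfer, 110 s agonist read, then EC80 54-4 (4uM final) and 110 s antagonist read.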
# D2 ag: Beta-Arrestin HTS for Positive Allosteric Modulators of the Human D2 Dopamine Receptor: Agonists; actives 0.084% (n = 360,000); DiscoveRx PathHunter D2 beta-arrestin, luminescence, 90 min; 100% = 57 uM dopamine signal; activation, % (concentration not given with the values); D(2) dopamine receptor (Homo sapiens), P14416; AID 624465, 2012; in the data active = activation above about 40%; inconclusive = about 15% to 40%; inactive = below about 15%; also: compound concentration not given in the record; the text of the record calls up to 30% inactive
#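 DiscoveRx PathHunter D2 beta-arrestin cells (2,100/well) attached overnight, then compound-stimulated 90 min at 37 C in HBSS/10 mM HEPES/0.1% Tween-20 buffer; beta-galactosidase complementation read by luminescence after 1 h at ambient temperature. Dopamine 57 uM final (EC100) as control.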
# * marks the source's active call; other numbers are inactive results; ? = inconclusive; · = no result given; & = joins results of further samples; [ ] = remark or other dose.
# Second line of a record – Six1-Eya2 inh, TRPML1 blocker, PINK1 modulator, D2 potentiator, D2 ag, TRPML1 agonist
> O=C(Nc1ccc([N+](=O)[O-])cc1)Nc1ccc(N2CCOCC2)c2nonc12
    -2, 5, 3.2%, -30, 1.1, 2.2
> COc1cccc(S(=O)(=O)N(C)C[C@@H]2Oc3ncc(C#CCN(C)C)cc3C(=O)N([C@H](C)CO)C[C@H]2C)c1
    8, 10, 3.3%, 6, 2.6, -0.4
> COc1ccc(S(=O)(=O)N2CCCCCC2)cc1C(=O)Nc1ccccn1
    2, -4, 1.8%, -16, 1.5, -0.2
> Cc1ccc(C(=O)N2CCN(c3nc4ccccc4n3C)CC2)cc1
    4, ·, -1.1%, -6, -2.9, ·
> CCOC(=O)c1cc(-c2ccc(N3CCOCC3)cc2)nn1-c1ccccc1C(=O)O
    ?, 4, 0.9%, -16, -0.5, -0.6
> Cc1nn2c(C)c(C(=O)NCc3cccc(Br)c3)cnc2c1-c1ccccc1
    ·, 13, 3.3%, ·, ·, 2.6
> CN1CCN(C(c2ccccn2)c2cc(Cl)c3cccnc3c2O)CC1 (stereo unspecified)
    -89*, -14, 0.9%, -27, -1.6, -0.1
> Cc1sc2nc(CN(C(=O)NC3CCCCC3)C3CCCCC3)[nH]c(=O)c2c1C
    -4, -3, 7.3%[38.3 µM], -4, -0.7, -0.2
> Cc1ccc(N(CC(=O)Nc2cccc(Cl)c2)S(=O)(=O)c2cccs2)cc1
    ·, 2, 6.4%, ·, ·, 2.9
> Cc1ccc(N2C(=O)CC(NCC3CCCO3)C2=O)cc1 (stereo unspecified)
    3, 8, -0.9%, -7, 15, 0.8
> COc1cccc(/C=N/N2CCN(c3ccncc3S(=O)(=O)N3CCCCC3)CC2)c1
    -29, -15, 2.8%, -4, 1.0, 0.4
> C=CCn1c(=N)n(CC(O)COc2ccccc2OC)c2ccccc21 (stereo unspecified)
    1, -6, 0.9%, -9, -4.9, 0.2
> Cc1c(Cl)cccc1NC(=O)CN(CCc1ccccc1)S(=O)(=O)c1ccccc1
    ·, 82, 2.0%, ·, ·, 3.7
> O=c1[nH]c(C2CCN(S(=O)(=O)Cc3ccccc3)CC2)nc2c1nnn2Cc1ccccc1Cl
    -2, -15, -0.4%, 2, -2.2, 1.7
> CCn1c(NCc2cc(OC)c(OC)c(OC)c2)nc2ccccc21
    3, -13, 1.0%, -27, 2.7, -0.5

# Exported as comma-separated lines: ten of the compounds above.
Molecule,Six1-Eya2 inh,TRPML1 blocker,PINK1 modulator,D2 potentiator,D2 ag,TRPML1 agonist
O=C(Nc1ccc([N+](=O)[O-])cc1)Nc1ccc(N2CCOCC2)c2nonc12,-2,5,3.2%,-30,1.1,2.2
COc1cccc(S(=O)(=O)N(C)C[C@@H]2Oc3ncc(C#CCN(C)C)cc3C(=O)N([C@H](C)CO)C[C@H]2C)c1,8,10,3.3%,6,2.6,-0.4
COc1ccc(S(=O)(=O)N2CCCCCC2)cc1C(=O)Nc1ccccn1,2,-4,1.8%,-16,1.5,-0.2
Cc1ccc(C(=O)N2CCN(c3nc4ccccc4n3C)CC2)cc1,4,·,-1.1%,-6,-2.9,·
CCOC(=O)c1cc(-c2ccc(N3CCOCC3)cc2)nn1-c1ccccc1C(=O)O,?,4,0.9%,-16,-0.5,-0.6
Cc1nn2c(C)c(C(=O)NCc3cccc(Br)c3)cnc2c1-c1ccccc1,·,13,3.3%,·,·,2.6
CN1CCN(C(c2ccccn2)c2cc(Cl)c3cccnc3c2O)CC1 (stereo unspecified),-89*,-14,0.9%,-27,-1.6,-0.1
Cc1sc2nc(CN(C(=O)NC3CCCCC3)C3CCCCC3)[nH]c(=O)c2c1C,-4,-3,7.3%[38.3 µM],-4,-0.7,-0.2
Cc1ccc(N(CC(=O)Nc2cccc(Cl)c2)S(=O)(=O)c2cccs2)cc1,·,2,6.4%,·,·,2.9
Cc1ccc(N2C(=O)CC(NCC3CCCO3)C2=O)cc1 (stereo unspecified),3,8,-0.9%,-7,15,0.8

# (list continues)
# Second line of a record – Six1-Eya2 inh, TRPML1 blocker, PINK1 modulator, D2 potentiator, D2 ag, TRPML1 agonist
> CC(=O)C[C@H]1c2cc(C(F)(F)F)ccc2S(=O)(=O)N1C1CCCC1
    1, -13, 0.2%, -9, -0.3, 0.5&-0.9
> CCN(Cc1ccncc1)C(=O)c1ccccc1NS(=O)(=O)c1ccc(Br)cc1
    4, -10, 0.2%, -12, -4.1, -0.4
> O=C(COC(=O)c1ccccc1C(=O)c1ccc(Cl)cc1)NCCc1ccccc1
    23, 31, 0.5%, -8, -3.0, 7.0
> CN1CCC(NC(=O)Nc2ccc(Br)cc2)CC1
    6, 0, 0.3%, -10, -1.3, -0.6
> NS(=O)(=O)c1ccc(CCNC(=O)CN2CCC(Cc3ccccc3)CC2)cc1
    7, -1, -0.7%, -4, -3.7, 0.1
> COC(=O)c1ccc(NC(=O)CCc2nnc3ccc(NCc4ccco4)nn23)cc1
    -9, -7, 1.6%, -4, -0.1, 0.9
> Cc1ccc(N(CC(=O)NCc2cccs2)S(=O)(=O)c2cccs2)cc1
    25, 1, -1.5%, -18, -6.3, 0.5
> COc1cc(/C=C2/SC(=S)N(C)C2=O)ccc1OC(=O)c1ccco1
    -1, -2, ?, -2, -2.9, 3.2
> O=C(Nc1cccc(-c2cccc(Cl)c2)c1)C1CCN(Cc2ccon2)CC1
    -6, -11, -1.0%, -20, -1.3, 0.3
> Cc1ccc(C(=O)C(NC(=O)c2ccco2)N2CCOCC2)cc1 (stereo unspecified)
    3, -4, -2.8%[38.3 µM], -8, -0.1, -0.2
> O=C(c1ccc2ncsc2c1)N1CCCC(C(F)(F)F)C1 (stereo unspecified)
    10, 6, -3.1%, -11, -1.8, 0.8
> O=C(NCCNC(=O)c1ccccc1[N+](=O)[O-])c1ccccc1[N+](=O)[O-]
    12, -6, 1.7%, -3, -4.0, 0.1
> O=C(Cn1cc(C(F)(F)F)cc(Cl)c1=O)NCc1ccc(Cl)cc1Cl
    6, -1, 1.9%, -5, 6.4, 0.5
> c1ccc(C(NCCNC(c2ccccc2)c2ccccc2)c2ccccc2)cc1
    3, -4, 40µM*, -5, 7.9, 1.2
> Cc1ncc(CO)c(CO)c1OCC(O)CN1CCN(c2ccc(F)cc2)CC1 (stereo unspecified)
    1, ·, -0.1%, -12, 5.9, -0.2
> Cc1oc(-c2ccccc2)nc1C(=O)N1CCN(c2ccc(F)cc2)CC1
    -26, 9, -0.1%, -31, -3.1, 1.3
> Cc1cc2ccccc2c(=O)n1CC(=O)NCC(=O)N(C)C1CCCCC1
    3, -6, -1.5%, -4, -2.0, 2.4
> N=C1SC(CC(=O)Nc2ccc([N+](=O)[O-])cc2)C(=O)N1c1ccccc1 (stereo unspecified)
    -4, -17, -0.5%, -7, -21, 0.6
> CC(C)C[C@@H](CN)NC(=O)c1nc[nH]c1C(=O)N[C@@H](C)C(=O)CNC[C@H](CC(C)C)NC(=O)c1nc[nH]c1C(=O)N[C@@H](CC(=O)O)C(=O)O
    -14, -16, -1.2%, 4, -2.1, -1.1
> Cc1ccc(S(=O)(=O)N/N=C/c2cccc(OC3CSC3)c2)cc1
    -13, 2, 11%, -20, -2.2, 1.6
> Cc1cccc(C(=O)NC2CCN(CC(=O)Nc3cccc(Cl)c3)CC2)c1
    -3, 27, 1.3%, -26, -0.9, -0.6
> Cc1occc1C(=O)NNC(=O)Nc1ccc(Cl)c(Cl)c1
    -14, -3, 1.0%, -8, 1.7, 0.1
> N#Cc1ccc(CO/N=C/c2ccccc2)cc1
    3, 13, 0.1%, -7, -0.2, -0.7
> CC(C)(C)C(=O)O/N=C1\CCS(=O)(=O)c2sccc21
    5, -19, 0.2%, -5, -3.7, -1.0
> CC1CCCCN1S(=O)(=O)c1ccc(-n2cnnn2)cc1 (stereo unspecified)
    8, 1, -2.0%, 3, 1.9, 0.0
> CC(C(=O)Nc1cc([N+](=O)[O-])ccc1Cl)N1CCN(c2ccccc2)CC1 (stereo unspecified)
    -9, 25, 0.9%, -2, -3.5, -0.3
> Cc1ccccc1NC(=O)c1c(NC(=O)c2ccncc2)sc2c1CCC(C(C)(C)C)C2 (stereo unspecified)
    ·, 31, 7.9%, ·, ·, -0.6
> O=C(N/N=C/c1cccnc1)C1CCCN(S(=O)(=O)c2ccccc2)C1 (stereo unspecified)
    -1, 2, 6.2%, -22, -4.9, 0.2
> CCN(C(=O)COC(=O)c1c2c(nc3ccccc13)CCC2)c1c(N)n(Cc2ccccc2)c(=O)[nH]c1=O
    -4, -13, 1.9%, -1, -0.5, -0.3
> CCCCn1nnnc1SCC(=O)Nc1ccc(C)cc1
    3, 31, 0.4%, 16, -1.9, 0.4
> COC(=O)c1nc(NC(=O)c2ccc(F)cc2)n[nH]1
    4, 21, 1.5%, -1, -3.8, 0.0
> O=C(CSc1nnc(-c2ccco2)o1)NCC(=O)c1ccccc1
    -1, -13, 2.3%[38.3 µM], -2, -2.0, -0.4
> CCN(CC)CCCNC(=O)c1c2c(nc3ccccc13)C(=O)N(C1CCCCC1)C2
    ·, -7, 1.0%, ·, ·, 0.1
> C[C@@H](O)CC#Cc1ccc2oc(=O)c(-n3cc(-c4ccsc4)nn3)cc2c1
    0, -9, 5.5%, -4, -3.4, 0.4
> Cn1ncc(N=Cc2ccc([N+](=O)[O-])cc2)c1C(=O)N1CCOCC1
    4, -8, -0.1%[38.3 µM], -9, 0.6, 0.6
> CCc1ccc(NC(=O)C2CCC(CNC(=O)[C@@H]3Cc4ccccc4CN3)CC2)cc1 (stereo partly specified)
    1, -6, ?, -6, 1.3, 3.1
> CS(=O)(=O)c1ccc(Cl)c(NC(=O)COC(=O)CCN2C(=O)C3CC=CCC3C2=O)c1 (stereo unspecified)
    -1, 7, -0.7%, 0, -3.5, -0.7
> COc1cc(/C=C2/C(=O)NN(c3cccc(C)c3)C2=O)cc([N+](=O)[O-])c1O
    13, -8, 7.5%, -12, -8.1, 1.7
> COc1cccc(Nc2nc(C(N)Cc3ccc(Cl)cc3)cs2)n1 (stereo unspecified)
    -13, ·, -1.2%, -12, 5.6, 4.2
> O=C(CC1C(=O)NCCN1C/C=C/c1ccccc1)NCCCC1CCCC1 (stereo unspecified)
    3, -9, 1.6%, -6, -1.3, -0.1
> CCOC(=O)c1cnc(-n2nc(C)cc2C)nc1Nc1ccc(C)cc1
    4, -10, 5.5%, 9, -2.3, -0.2
